Assay outcomes from PubChem BioAssay.
FUS suppressor: suppressors of FUS proteinopathy in yeast. 390,000 tested, 0.24% active. S. cerevisiae FUS-expressing, growth rescue, OD600, 24 h. AID 1347120. Potency, µM (series often up to 76.6 µM), inactives show top-dose growth rescue (activation), hits mostly activators;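 note: potency is the fitted concentration of half-maximal effect; plate controls were DMSO vehicle for no effect and reference control for full effect; nearly all actives have a fitted effect of over 55% in size; some results filed as inactive show a strong effect at the top dose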
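Cultures pregrown in 2.5% raffinose medium are shifted to minimal medium containing 2% galactose to express toxic FUS. Compounds are tested at several concentrations. After 24hr at 30C, growth is quantified at 600 nm absorbance.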
EPAC1 antagonist: EPAC1 (human) antagonism; Potency, µM (doses to about 115 µM), for the others: at the top dose activity change, negative = inhibition, actives largely listed as inhibitors; O95398; EPAC1 GEF assay, Rap1b-BODIPY-GDP exchange fluorescence; 360,000 tested, 0.14% active;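 note: potency is the fitted concentration of half-maximal effect; plate controls were vehicle for no effect and positive control for full effect; nearly all actives have a fitted effect of over 50% in size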
IL-2 act: IL-2 activation; activation, % (series mostly up to about 46 µM); IL-2 activation reporter assay, cell-based qHTS; stimulated with anti-CD3/CD4/CD28 beads; in transgenic mouse T cells; 360,000 tested, 0.065% active; in the data active = activation above about 50%; inconclusive = mostly about 30% to 49%; note: 0% is about no effect
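First, unstimulated transgenic mouse T cells were exposed to compound for 60 min. Next, anti-CD3/anti-CD4-coated beads with anti-CD28 were added. Finally, after 18 h at 37 degrees C, EGFP and DsRed were imaged.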
WRN helicase inh: WRN helicase (human) inhibition; Q14191; WRN helicase unwinding, fluorescent forked duplex, kinetic; Potency, µM (highest dose often 114 µM), for the others: at the top dose activity change, negative = inhibition, most hits filed as inhibitors; 360,000 tested, 0.46% active; AID 651768; note: potency is the fitted concentration of half-maximal effect; % is set by controls: 0 for no effect and ±100 for the full control effect; nearly all actives have a fitted effect of over 55% in size
Target sequence (Q14191 whole entry, looked up): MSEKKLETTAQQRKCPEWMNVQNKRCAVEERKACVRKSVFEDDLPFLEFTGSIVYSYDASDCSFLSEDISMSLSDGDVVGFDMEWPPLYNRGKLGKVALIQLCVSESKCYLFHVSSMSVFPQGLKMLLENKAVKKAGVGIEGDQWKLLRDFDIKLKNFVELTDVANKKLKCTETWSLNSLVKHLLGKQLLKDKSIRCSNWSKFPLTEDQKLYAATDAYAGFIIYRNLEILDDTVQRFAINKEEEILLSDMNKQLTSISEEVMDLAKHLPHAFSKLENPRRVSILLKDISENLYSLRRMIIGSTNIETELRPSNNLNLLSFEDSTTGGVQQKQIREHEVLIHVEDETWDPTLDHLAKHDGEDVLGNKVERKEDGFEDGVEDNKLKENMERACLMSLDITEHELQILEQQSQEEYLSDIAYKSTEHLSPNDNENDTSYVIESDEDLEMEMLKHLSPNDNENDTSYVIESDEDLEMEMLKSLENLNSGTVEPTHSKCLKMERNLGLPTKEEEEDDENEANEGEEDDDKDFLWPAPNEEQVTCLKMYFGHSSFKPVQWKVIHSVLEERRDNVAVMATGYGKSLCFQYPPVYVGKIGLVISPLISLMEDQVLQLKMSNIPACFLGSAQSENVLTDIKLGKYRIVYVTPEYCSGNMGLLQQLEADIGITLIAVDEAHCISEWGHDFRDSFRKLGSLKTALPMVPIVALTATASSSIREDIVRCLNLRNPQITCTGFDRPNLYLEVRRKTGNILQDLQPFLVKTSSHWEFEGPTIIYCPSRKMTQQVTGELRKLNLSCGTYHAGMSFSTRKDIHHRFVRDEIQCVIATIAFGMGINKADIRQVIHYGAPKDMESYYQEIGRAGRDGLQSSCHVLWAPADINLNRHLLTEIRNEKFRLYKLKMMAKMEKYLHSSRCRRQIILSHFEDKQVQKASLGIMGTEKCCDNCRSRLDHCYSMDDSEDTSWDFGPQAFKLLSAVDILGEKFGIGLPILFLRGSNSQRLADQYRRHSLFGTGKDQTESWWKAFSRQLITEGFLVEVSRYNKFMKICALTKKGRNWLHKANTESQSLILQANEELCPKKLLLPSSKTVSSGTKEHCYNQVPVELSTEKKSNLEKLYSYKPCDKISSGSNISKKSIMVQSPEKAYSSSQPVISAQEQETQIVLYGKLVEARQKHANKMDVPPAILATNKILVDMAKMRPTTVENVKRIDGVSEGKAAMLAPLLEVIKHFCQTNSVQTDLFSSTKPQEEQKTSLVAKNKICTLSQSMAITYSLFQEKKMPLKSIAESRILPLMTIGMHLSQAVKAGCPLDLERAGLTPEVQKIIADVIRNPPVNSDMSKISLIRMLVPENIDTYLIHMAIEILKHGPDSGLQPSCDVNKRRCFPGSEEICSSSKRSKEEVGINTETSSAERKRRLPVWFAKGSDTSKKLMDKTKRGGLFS
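Enzyme (20 nM final) and test compound sit together 15 min at room temperature before substrate addition. Substrate is a single-forked duplex oligonucleotide (100 nM) labelled with fluorophore and quencher, with 2 mM ATP; helicase unwinding raises red fluorescence, read kinetically.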
Abeta yeast res: restores growth of yeast expressing A-beta42 peptide; Potency, µM (top dose mostly 46.1 µM), without a hit: top-dose growth rescue, most hits filed as activators; yeast expressing A-beta42, growth rescue, OD600, 48 h; response scale: 0% DMSO, 100% iron-clioquinol control; 410,000 tested, 0.063% active; AID 1347071; note: potency is the fitted concentration of half-maximal effect; nearly all actives have a fitted effect of over 55% in size
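Growth rescue measured by 600 nm absorbance after 48 h yeast culture at 30 C with compound. Values normalized between DMSO and an equimolar ferric chloride plus clioquinol control.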
aSyn yeast inh: inhibitors of alpha-synuclein toxicity in yeast; 370,000 tested, 0.14% active; Potency, µM (series often up to 46.1 µM), for inactives: top-dose growth rescue (activation), hits mostly activators; Yeast expressing alpha-synuclein, growth rescue, BacTiter-Glo, 24 h; note: potency is the fitted concentration of half-maximal effect; % of control where 0% means no effect; nearly all actives have a fitted effect of over 65% in size
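Rescue of yeast growth: cells expressing toxic alpha-synuclein, induced in galactose at OD600 0.02, incubated with compound 24 h at 30 C. ATP luminescence quantified growth; inhibitors of toxicity appear as activators.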
EPAC1 ag: EPAC1 (human) agonism | EPAC1 agonist qHTS, biochemical assay; response scale: 100% = response to 6.5 mM cAMP | 360,000 tested, 0.073% active | Potency, µM (series often up to 154 µM), without a hit: at the highest dose activation, most hits filed as activators; note: potency is the fitted concentration of half-maximal effect; nearly all actives have a fitted effect of over 60% in size
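Multi-concentration qHTS readout: loss of Rap1B-bound BODIPY-GDP fluorescence driven by 100 nM EPAC1 with excess GDP (50 uM), monitored kinetically at room temperature; agonist response expressed relative to 6.5 mM cAMP.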
PLK1 PBD inh: blocks phosphopeptide binding to human PLK1 polo-box domain; Plk1 PBD binding of FITC phosphopeptide, fluorescence polarization; Potency, µM, without a hit: max response, negative = inhibition, most hits filed as inhibitors; 360,000 tested, 2.8% active; AID 720504; note: potency is the fitted concentration of half-maximal effect; series mostly up to about 57 µM; % is set by controls: 0 for no effect and ±100 for the full control effect; nearly all actives have a fitted effect of over 65% in size
Starred values were filed as active, the others as inactive; ? = inconclusive; . = no result given; [ ] = another dose, or the depositor's remark. Unless noted, calls come from the whole dose curve; as a rule, active = well fitted curve in the direction sought with a large enough effect; inconclusive = small, poorly fitted or top-dose-only effect, or another doubt; inactive = no such curve, though single readings can be large; an effect the other way counts as inactive or inconclusive. Not all compounds are listed; rates above refer to the full screens.

mol,FUS suppressor,EPAC1 antagonist,IL-2 act,WRN helicase inh,Abeta yeast res,aSyn yeast inh,EPAC1 ag,PLK1 PBD inh
COc1cc(C)c(Cl)c(C)c1S(=O)(=O)NCc1ccc2c(c1)OCO2,21.0%,-2.6%,1.3,-6.4%,9.9%,4.2%,-13.3%,-9.4%
COc1cc(C(C)=O)ccc1OCC(=O)N1CCc2ccccc2C1,5.2%,-3.9%,-2.0,-27.9%,-16.9%,-0.6%,5.4%,-5.6%
CC(=O)Nc1cc(-c2ccc(CO)cc2)cn2c(-c3cccc(C(F)(F)F)c3)cnc12,?,3.3%,0.7,-4.5%,-10.6%,-4.8%,-7.5%,-27.3%
C=CCN1C(=O)c2ccc(C(=O)N3CCC(C(N)=O)CC3)cc2C1=O,-20.3%,-29.5%,1.6,0.6%,1.1%,0.6%,-2.7%,-7.0%
O=C(Cc1cccs1)Nc1ccc(S(=O)(=O)N2CCCC2)cc1,17.9%,-22.2%,-1.5,?,-8.4%,2.9%,0.4%,-14.1%
CCCn1ncc(CN2CCC(CO)(Cc3ccc(OC)cc3)CC2)c1C,6.6%,-1.1%,-2.2,6.2%,-7.7%,-2.5%,-2.3%,-2.8%
O=C(Nc1cccc([N+](=O)[O-])c1)c1cnccn1,7.5%,-4.9%,-1.8,-31.3%[57.1 µM],-7.8%,-4.2%,2.6%,-16.7%
O=C(CN1CCN(S(=O)(=O)c2cccc(Br)c2)CC1)NCCc1cccs1,18.3%,-3.2%,-0.6,0.4%,-7.1%,11.8%,-1.2%,0.8%
CN(C(=O)CSc1nncc2ccccc12)c1ccccc1,17.6%,-9.7%,1.2,-7.7%,18.7%,-1.5%,4.0%,-9.0%
Cc1nc(NC(=O)c2ccc(Cl)cc2)sc1Cc1ccc2c(c1)OCO2,-10.1%,-19.2%,-2.9,-7.7%,-5.6%,-6.1%,0.1%,?
CCOC(=O)c1cc(-c2ccccc2)sc1NC(=O)C(C)Sc1nnc(N)s1 (stereo unspecified),.,-9.9%,0.0,-17.3%,13.9%,-1.1%,23.0%,-10.8%
Cc1cccc(C)c1NC(=O)CN(C)C(=O)CCc1nc2sc3c(c2c(=O)[nH]1)CCCC3,.,-16.9%,0.2,-11.6%[11.6 µM],4.8%,2.8%,-6.0%,-13.9%
O=C(OCc1cc(=O)n2c(n1)sc1ccccc12)c1cccc(O)c1,.,-16.3%,2.0,?,21.0%,1.7%,-0.7%,?
Cc1cc(OCC(=O)OCC(=O)N2c3ccccc3NC(=O)C2(C)C)ccc1Cl,22.5%,-21.6%,-0.2,-15.2%[11.6 µM],22.7%,17.6%,11.5%,-12.0%
CCn1c(COc2ccc(Cl)cc2)nnc1SCC(=O)Nc1ccc2c(c1)OCCO2,-21.4%,16.7%,0.6,-4.2%,13.8%,-12.3%,-20.5%,-8.1%
COc1ccc(-c2cc3ccccc3oc2=O)cc1NC(=O)c1ccc([N+](=O)[O-])o1,.,-3.3%,-0.1,-21.0%,-28.0%,-15.7%,-4.3%,-2.9%
COc1cccc(OC)c1C1=NC(C)(C)CO1,-1.7%,5.3%,-3.6,-1.4%,-2.9%,3.7%,4.3%,7.3%
O=C(Nc1nc2ccc(SC(F)F)cc2s1)c1ccc(NS(=O)(=O)c2ccc(F)c(F)c2)cc1,19.6%,?,-1.1,-30.9%,-1.6%,3.9%,-17.4%,?
O=C(Nc1cccnc1)c1sc(Nc2ccccc2)nc1-c1ccccc1,.,-29.2%,1.1,-26.7%,0.2%,6.6%,-9.3%,2.6%
COc1ccc(NC(=O)CSc2nnc(-c3cccs3)n2N)c(OC)c1,11.5%,-0.1%,-1.3,-4.5%,18.6%,0.8%,-5.0%,?
CC1(C)COC(c2cccc(C3=NC(C)(C)CO3)n2)=N1,.,-4.1%,-1.9,-9.5%,1.7%,-1.8%,1.0%,1.0%
CCC(=O)c1ccc(OCC(=O)N2CCc3cc(OC)c(OC)cc3C2)cc1,13.0%,-16.6%,0.8,6.1%,2.7%,4.9%,-16.6%,-4.4%
COc1cccc(NC(=O)c2cc([N+](=O)[O-])ccc2NC(=O)CNCC2CCCO2)c1 (stereo unspecified),.,-21.0%,-4.1,-13.5%,2.5%,0.9%,2.0%,-6.6%
Cc1nc(NC(=O)c2ccccc2)sc1Cc1ccc2c(c1)OCO2,-8.8%,-21.0%,-1.1,-15.5%,8.8%,-1.6%,10.1%,-7.4%

Compound profiles, from the list above. Order of values: FUS suppressor | EPAC1 antagonist | IL-2 act | WRN helicase inh | Abeta yeast res | aSyn yeast inh | EPAC1 ag | PLK1 PBD inh
`O=C(Nc1cccnc1)c1sc(Nc2ccccc2)nc1-c1ccccc1` in the list: . | -29.2% | 1.1 | -26.7% | 0.2% | 6.6% | -9.3% | 2.6%
`Cc1nc(NC(=O)c2ccccc2)sc1Cc1ccc2c(c1)OCO2` in the list: -8.8% | -21.0% | -1.1 | -15.5% | 8.8% | -1.6% | 10.1% | -7.4%
`CC1(C)COC(c2cccc(C3=NC(C)(C)CO3)n2)=N1` in the list: . | -4.1% | -1.9 | -9.5% | 1.7% | -1.8% | 1.0% | 1.0%

Other entries.
mol,FUS suppressor,EPAC1 antagonist,IL-2 act,WRN helicase inh,Abeta yeast res,aSyn yeast inh,EPAC1 ag,PLK1 PBD inh
O=C(Nc1nc(-c2ccccn2)cs1)c1cc(Cl)ccc1[N+](=O)[O-],11.9%,11.3%,-4.0,?,12.6µM*,?,8.1%,9.47µM*
CC(C)N1C(=O)CCN(C=O)c2ccccc21,-12.9%,4.2%,1.3,-0.6%,-10.9%,-9.1%,-9.2%,-29.9%
C=CCn1c(CCNC(=O)c2ccccc2F)nnc1SCC(=O)Nc1nc(C)cs1,3.6%,-10.9%,-0.1,-6.9%,12.0%,-3.4%,8.7%,-13.0%
CCOC(=O)Cn1c(C)nc2ccccc21,-16.9%,0.0%,0.4,-23.0%,?,-0.8%,11.6%,1.8%
CCCOc1ccc(/C(O)=C2/C(=O)C(=O)N(CCN(C)C)C2c2ccc(O)c(OC)c2)cc1 (stereo unspecified),2.7%,-6.5%,-0.4,-4.3%,-35.3%[inhibitor],-1.8%,-9.4%,-14.1%
COCCn1c(=NC(=O)CSC(C)=O)sc2cc(F)ccc21,-7.5%,-9.1%,1.0,-1.2%,?,0.7%,2.8%,-15.3%

Random excerpt: 3 records from the list
mol,FUS suppressor,EPAC1 antagonist,IL-2 act,WRN helicase inh,Abeta yeast res,aSyn yeast inh,EPAC1 ag,PLK1 PBD inh
O=C(Nc1nc(-c2ccccn2)cs1)c1cc(Cl)ccc1[N+](=O)[O-],11.9%,11.3%,-4.0,?,12.6µM*,?,8.1%,9.47µM*
CCOC(=O)Cn1c(C)nc2ccccc21,-16.9%,0.0%,0.4,-23.0%,?,-0.8%,11.6%,1.8%
CCCOc1ccc(/C(O)=C2/C(=O)C(=O)N(CCN(C)C)C2c2ccc(O)c(OC)c2)cc1 (stereo unspecified),2.7%,-6.5%,-0.4,-4.3%,-35.3%[inhibitor],-1.8%,-9.4%,-14.1%
